Source: PubChem
PINK1 expr mod – PINK1 expression modulation. PINK1 immunofluorescence, high-content cytometry, 24 h. Potency, µM (doses to about 76.6 µM), for the others: top-dose activation (PINK1 increase), actives largely listed as activators. hit rate 0.2% among 410,000. AID 624263; active = well fitted activation curve with a large enough effect; inconclusive = small, poorly fitted or top-dose-only effect; inactive = flat fitted curve, though single readings scatter; cell line not stated here;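 further: potency means the concentration at half of the fitted maximal effect; % of control where 0% means no effect; nearly all actives have a fitted effect of over 65% in size; a mitochondrial uncoupler was the plate control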
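Cells are seeded, rested 12 hours, then given compound at five concentrations or DMSO for 24 hours. After fixation, blocking and antibody staining, PINK1 amount and mitochondrial localization are scored; CCCP serves as control.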
D2 ag – agonists of human D2 dopamine receptor (beta-arrestin); DiscoveRx PathHunter D2 beta-arrestin, luminescence, 90 min; 100% = 57 uM dopamine signal; activation, % (concentration not given with the values); hit rate 0.084% among 360,000; in the data active = activation above about 40%; inconclusive = about 15% to 40%; inactive = below about 15%; further: compound concentration not given in the record; the text of the record calls up to 30% inactive
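DiscoveRx PathHunter D2 beta-arrestin cells (2,100/well) attached overnight, then compound-stimulated 90 min at 37 C in HBSS/10 mM HEPES/0.1% Tween-20 buffer; beta-galactosidase complementation read by luminescence after 1 h at ambient temperature. Dopamine 57 uM final (EC100) as control.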
TRPML1 agonist – agonists of human TRPML1 channel; Q9GZU1; TRPML1-expressing cells, Ca2+ dye fluorescence, FDSS; host cell line not named in the record; reference of the full effect not given here; activation, % (no concentration beside the values); hit rate 0.12% among 410,000; AID 624414; in the data active = activation above about 50%; inconclusive = about 30% to 50%; inactive = below about 30%; further: 0% is about no effect; the text of the record puts the active cut at 80%
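Tet-induced TRPML1-DL cells, 1,500 per well, cultured overnight, were loaded with a no-wash Ca2+ dye for 45–90 min. Calcium fluorescence was recorded on the FDSS for 110 s after compound addition, before the EC80 agonist (4 uM 54-4) was added.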
Six1-Eya2 inh – blocks human Six1 binding to Eya2; Q15475+O00167; AlphaScreen GST-Six1/His-Eya2 binding, biochemical; hits give low values; control for the full effect not named in the record; activity change, % (concentration not given with the values); hit rate 0.56% among 360,000; AID 651725; in the data active = activity change below about -65%; inconclusive = about -30% to -65%; inactive = above about -30%; further: on the % scale 0 is the no-effect control and ±100 the full control effect
Target sequence (O00167 whole entry, looked up): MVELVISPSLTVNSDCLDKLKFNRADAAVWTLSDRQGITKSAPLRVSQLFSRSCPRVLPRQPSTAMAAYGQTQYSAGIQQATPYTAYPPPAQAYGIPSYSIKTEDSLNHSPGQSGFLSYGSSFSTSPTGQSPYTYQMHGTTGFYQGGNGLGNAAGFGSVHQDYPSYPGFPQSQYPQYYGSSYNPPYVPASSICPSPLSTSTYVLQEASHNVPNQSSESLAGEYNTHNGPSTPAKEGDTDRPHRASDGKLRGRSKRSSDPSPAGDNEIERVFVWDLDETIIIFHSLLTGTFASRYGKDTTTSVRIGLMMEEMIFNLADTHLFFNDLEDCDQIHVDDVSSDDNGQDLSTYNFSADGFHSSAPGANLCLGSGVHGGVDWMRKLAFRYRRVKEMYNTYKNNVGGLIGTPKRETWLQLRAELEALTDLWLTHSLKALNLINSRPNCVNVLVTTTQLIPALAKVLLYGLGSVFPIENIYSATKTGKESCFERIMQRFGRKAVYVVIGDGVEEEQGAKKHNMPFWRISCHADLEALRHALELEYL
Target sequence (Q15475 whole entry, looked up): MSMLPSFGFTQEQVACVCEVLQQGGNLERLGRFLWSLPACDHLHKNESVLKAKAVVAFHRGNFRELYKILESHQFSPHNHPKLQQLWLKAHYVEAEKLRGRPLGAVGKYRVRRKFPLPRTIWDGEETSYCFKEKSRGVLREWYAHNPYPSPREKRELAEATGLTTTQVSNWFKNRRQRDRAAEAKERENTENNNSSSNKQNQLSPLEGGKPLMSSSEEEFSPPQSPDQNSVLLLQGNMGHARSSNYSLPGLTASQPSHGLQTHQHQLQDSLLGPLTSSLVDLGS
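AlphaScreen with GST-Six1 and His-Eya2 (5X mix: 250 nM and 500 nM), glutathione donor and nickel acceptor beads; buffer 50 mM Tris pH 8.0, 300 mM NaCl, 1 mM TCEP; 1 h at 37 C in the dark.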
TRPML1 inh – blocks the human TRPML1 channel; TRPML1-inducible cells, Ca2+ dye fluorescence, FDSS; hits give low values; inhibition of EC80 agonist-evoked calcium signal; hit rate 0.02% among 390,000; activity change, negative = inhibition, % (test concentration not listed); AID 624415; in the data active means activity change below about -50%; inconclusive means about -30% to -50%; inactive means above about -30%;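 further: stimulus is agonist 54-4 at its EC80 concentration; on the % scale 0 is the no-effect control and ±100 the full control effect; compound concentration not given in the record; the text of the record puts the active cut at -80%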
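Calcium fluorescence in TRPML1-DL cells induced overnight with Tet: a 110 s read after compound pin addition, then a 110 s antagonist read after challenge with 54-4 at 4 uM final (EC80).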
CtBP-E1A inh – blocks the CtBP interaction with E1A. hit rate 0.49% among 340,000. AlphaScreen GST-E1A/His-CtBP binding, 1536-well; hits give low values; control for the full effect not named in the record. activity change, % (no concentration beside the values); in the data active means activity change below about -65%; inconclusive means about -30% to -65%; inactive means above about -30%; further: on the % scale 0 is the no-effect control and ±100 the full control effect; compound concentration not given in the record
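Protein mix (5X: 125 nM each GST-E1A, His-CtBP) was incubated with pinned compound 2 h at 37 deg C in dark, in 50 mM Tris pH 8.0 buffer with 300 mM NaCl. Glutathione donor and nickel acceptor beads followed; AlphaScreen signal read after 1 h.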
* = called active by the depositor; u = inconclusive; x = no result given; [ ] = dose if it differs, or a comment.

SMILES	PINK1 expr mod	D2 ag	TRPML1 agonist	Six1-Eya2 inh	TRPML1 inh	CtBP-E1A inh
O=C(Nc1cccc(C(F)(F)F)c1)C(Sc1n[nH]c(=O)[nH]c1=O)c1ccccc1 (stereo unspecified)	0.0%	-1.5	0.0	7	2	9
FC(F)(F)c1cccc(NC(=S)NC(c2ccccc2)c2ccccc2)c1	u	-7.9	1.5	2	8	-26
COCCNc1c2c(nc3ccccc13)CCC2	-0.1%	1.3	0.1	-6	4	3
Cc1onc(-c2ccccc2Cl)c1NC(=O)NCc1cccs1	-0.7%	-2.5	0.5	-1	19	-3
O=C(NCc1ccccc1)C(=O)c1cn(CC(=O)N2CCOCC2)c2ccccc12	-1.7%	-5.3	-1.1	2	11	x
CC1CCCN(C(=O)CCNS(=O)(=O)c2ccc3c(c2)c(=O)n(C)c(=O)n3C)C1 (stereo unspecified)	0.3%	-1.3	-0.6	-6	1	-23
COc1cc(NC(=O)c2ccc(N3CCCC3=O)cc2)cc(OC)c1	11%	-0.1	1.8	10	1	0
Cc1ccc2nc(/C=C/c3cccc(F)c3)ccc2c1	7.6%	-0.1	0.5	25	-2	13
CCn1cc(C=O)c2cc(S(=O)(=O)N3CCOCC3)ccc21	2.0%	-0.8	1.0	5	-2	-6
CCOc1ccc(NC(=O)CSc2nc3ccccc3c(=O)n2CCC(=O)NC2CCCCC2)cc1	-0.3%	x	0.5	x	-5	x
O=C(NCc1ccncc1)C(=O)NCC1OCCCN1S(=O)(=O)c1cc(F)ccc1F (stereo unspecified)	0.5%	-2.1	0.6	-1	27	-7
CCc1ccc(NC(=O)Cn2c(=O)n(Cc3ccco3)c(=O)c3cccnc32)cc1	3.4%	x	-0.4	x	-13	x
CCOC(=O)Cn1c(CN2CCN(C(=O)c3ccco3)CC2)nc2c1c(=O)n(C)c(=O)n2C	-1.6%	-3.1	-0.6	-21	-1	-22
O=c1c2ccccc2n2c(-c3ccc(F)c(F)c3)nnc2n1CCc1ccccc1	1.2%	x	-0.8	x	1	x
Cc1ccc(Cl)cc1NC(=O)CN1C(=O)C(C)(C)c2cc(S(=O)(=O)N3CCCCC3)ccc21	6.0%	x	1.9	x	0	x
O=C(C1=C(O)C(=O)N(CCOCCO)C1c1cccs1)c1cccs1 (stereo unspecified)	-1.8%	-1.2	1.7	-3	-9	4
O=c1[nH]c2ccc(NCc3ccc(F)cc3)cc2[nH]1	1.2%	11	x	0	x	x
COc1ccc(CNC(=O)CSc2nn3c(=O)c(C(C)(C)C)nnc3s2)cc1OC	2.6%	2.8	-0.5	-6	14	-1
CCN(CC)CCCNC(=O)c1ccc(OCC(=O)Nc2ccccc2C(F)(F)F)c(OC)c1	3.7%	2.3	-0.1	2	-5	7
CCCC(CCC)C(=O)OC1C[C@H]2CC[C@@H](C1)[N+]2(C)C (stereo partly specified)	0.0%	-5.3	-0.7	-2	17	1
O=C(N/N=C/c1ccncc1)c1ccc(NS(=O)(=O)c2cccs2)cc1	0.5%	0.5	-1.4	0	-16	-12
CC1CCc2nc(NC(=O)Cc3cccs3)sc2C1 (stereo unspecified)	-1.1%	1.5	-0.3	-10	-11	-3
COc1ccc(C2=Nc3ccccc3N(CC(=O)Nc3cccc(C(C)=O)c3)C(=O)C2)cc1	0.5%	x	1.1	x	-26	x
Cn1c(SCC(=O)Nc2ccc(C(=O)O)cc2)nc2scc(-c3ccccc3Cl)c2c1=O	1.1%	1.7	-0.6	-7	-17	-13

Record cards, from the list above. Order of values: PINK1 expr mod, D2 ag, TRPML1 agonist, Six1-Eya2 inh, TRPML1 inh, CtBP-E1A inh
`CC1CCc2nc(NC(=O)Cc3cccs3)sc2C1` (stereo unspecified) is listed as -1.1%, 1.5, -0.3, -10, -11, -3
`Cc1ccc(Cl)cc1NC(=O)CN1C(=O)C(C)(C)c2cc(S(=O)(=O)N3CCCCC3)ccc21` is listed as 6.0%, x, 1.9, x, 0, x
`COc1ccc(CNC(=O)CSc2nn3c(=O)c(C(C)(C)C)nnc3s2)cc1OC` is listed as 2.6%, 2.8, -0.5, -6, 14, -1

New compounds follow:
SMILES	PINK1 expr mod	D2 ag	TRPML1 agonist	Six1-Eya2 inh	TRPML1 inh	CtBP-E1A inh
COCCn1c(C)cc(C(=O)CSc2nc(C)cc(C)c2C#N)c1C	4.5%	-2.3	-0.4	-18	2	-9
CCn1cc(C(=O)NCCCOC(C)C)c(=O)c2cc(S(=O)(=O)N3CCCC3)ccc21	-1.1%	3.8	0.0	-3	19	-23
CCOC(=O)c1cc(NC(=O)Cc2ccc(S(=O)(=O)N3CCOCC3)s2)cc(C(=O)OCC)c1	0.6%	-2.6	1.4	-19	-10	-1
Cc1cc(OC(C)C(=O)Nc2ccc(S(=O)(=O)Nc3onc(C)c3C)cc2)cc(C)c1Cl (stereo unspecified)	7.2%	-1.8	0.3	-20	-9	-2
COc1ccc(CNC(=O)CCc2c(C)nn(-c3ccc(N4CCCC4)nn3)c2C)c(OC)c1	1.9%	x	-0.6	x	-21	x
Cc1c(C(c2cc(O)ccc2O)c2c(C)n(C)n(-c3ccccc3)c2=O)c(=O)n(-c2ccccc2)n1C	-0.6%	-0.7	-0.2	-4	-9	-6
CSc1nnc(-c2cnccn2)n1CCCN1CCCC1=O	1.0%[38.3 µM]	-2.5	-0.3	5	0	10
Cc1ccc(S(=O)(=O)N2CCC(C(=O)NCc3ccccc3CN3CCCC3)CC2)cc1	-1.8%	2.5	-0.3	2	7	-10
O=C(NCc1ccc(Cl)c(Cl)c1)c1cccnc1	1.6%	-3.7	0.8	-3	0	2
CCC12CC1(C(=O)OC)C(=O)N1CCc3c([nH]c4ccccc34)C12 (stereo unspecified)	4.3%	9.5	u	3	x	9
COc1cccc(OCCOCC(O)CN2CCN(Cc3ccc(Cl)cc3)CC2)c1 (stereo unspecified)	2.8%	-3.7	0.1	-20	3	-5
Cc1nc(-c2ccccc2)nn1-c1ccc([N+](=O)[O-])cc1	0.2%	-0.8	0.4	-13	-8	-6
O=C(Nc1ccccc1F)c1cc2nc(C(F)F)cc(C(F)F)n2n1	6.9%[38.3 µM]	1.0	-0.6	-1	15	-3
CCCN1C(=O)c2ccccc2NC1c1ccc(OC)cc1O (stereo unspecified)	1.4%	-2.6	0.0	-2	-13	-2
CCc1ccc(NC(=O)CC2C(=O)N(c3ccc(Cl)cc3)C(=O)N2Cc2cccs2)cc1 (stereo unspecified)	3.7%	x	0.7	x	-3	x
CC(=O)Nc1cccc(-c2ccnc3c2CC(C)(C(=O)NCc2ccncc2)O3)c1 (stereo unspecified)	9.8%	-3.7	-0.3	-4	x	1
O=C(NC1CC2CCC(C1)N2C(=O)NC1CCCCC1)NC12CC3CC(CC(C3)C1)C2 (stereo unspecified)	-2.9%	-3.0	1.5	5	-16	-5
O=C(NCc1ccco1)Nc1cccc([N+](=O)[O-])c1	-0.5%	-3.5	2.0	-11	-17	-1
CCN(CC)C(=O)C1=C(C)NC(=S)NC1c1cn(-c2ccccc2)nc1-c1ccc(Cl)cc1 (stereo unspecified)	7.7%[38.3 µM]	-2.5	-0.4	-3	-2	-2
COc1cccc(CNc2nc3cc(-c4ccc(F)cc4)sc3c(=O)n2C)c1	5.8%	-2.8	1.5	2	-9	4
C=CCn1c(C)nc2ccccc2c1=O	-1.0%	6.2	1.4	3	31	x
O=C(Nc1nc(-c2ccc(F)cc2)cs1)C1CCCO1 (stereo unspecified)	1.7%	0.0	0.0	-2	43	1
Cc1c(NS(=O)(=O)c2cc(C(=O)N3CCCC(C)C3)ccc2Cl)c(=O)n(-c2ccccc2)n1C (stereo unspecified)	0.1%	2.1	0.4	11	10	7
CN(C)Cc1c(O)ccc2c(=O)c(-c3ccccc3Cl)coc12	0.9%	-2.4	-1.1	-12	3	9
COc1ccc(N(CCCN2C(=O)c3cccc4cccc(c34)C2=O)C(=O)c2ccncc2)cc1	6.0%	4.1	-0.7	5	4	0
O=C(NCc1cccs1)C1CC(c2ccccc2O)=NO1 (stereo unspecified)	8.2%	-1.8	-0.7	3	44	-5
CCc1nc2ccc(C(=O)NCCOc3ccc(OC)cc3)cn2c1N(CC)CCOC	0.0%	2.5	-1.4	7	x	0
O=C(O)c1cc(-c2ccccn2)n[nH]1	x	-1.0	-0.4	-9	1	-12
CC(C)NC(=O)COC(=O)c1ccc(Cl)c(S(=O)(=O)N2CCCC2)c1	0.8%	-0.2	0.3	1	-6	4
CSc1ccc(/C=C(/NC(=O)c2ccc(C)cc2)C(=O)Nc2cccc(F)c2)cc1	1.0%	-3.3	0.1	12	-8	-17
N#CCCCC#Cc1ccc2c(c1)COc1c3ccccc3nn1-2	-0.4%	-2.0	-0.2	-8	3	-9
CCOC(=O)C1CCN(C(=O)COc2ccc(S(=O)(=O)NC(C)C)cc2Cl)CC1	-1.9%	-1.0	1.2	-6	21	-5
C/C(=N\NC(=O)Cc1cccn1C)c1ccc2ccccc2c1	0.1%	-1.0	-0.4	-17	-4	-10
Cc1cc(Nc2ccc(F)cc2F)nc(-n2nc(C)cc2C)n1	2.5%	x	-1.0	x	15	x
CC(C)CC1C(=O)N(Cc2cn(CCC3OCCO3)nn2)CCS(=O)(=O)N1Cc1ccc(-c2ccccc2)cc1 (stereo unspecified)	-0.6%	-6.3	0.3	-2	20	-4
Cc1cccc2c(C(=O)N3CCN(c4ccccn4)CC3)cc(-c3cccc(Br)c3)nc12	1.6%	-4.8	0.5	-22	-6	-22
N/C(CN1CCSCC1)=N\OCc1c(F)cccc1Cl	0.3%	-1.3	-0.5	6	-12	-2
COc1cccc(-c2nnc(NC(=O)c3ccc(S(=O)(=O)N4CC(C)OC(C)C4)cc3)o2)c1 (stereo unspecified)	2.1%	-0.7	-0.7	0	-9	-5
Cc1ccc(Cl)cc1NC(=O)COC(=O)CC1CCCCC1	-0.5%	-0.9	2.3	17	20	24
Nc1nc(CN2CCN(c3ccccc3F)CC2)nc(Nc2ccccc2)n1	29%[38.3 µM]	6.2	-0.9	-16	8	-12
CC1CCN(C(=O)CN(c2ccc(Cl)c(C(F)(F)F)c2)S(C)(=O)=O)CC1	0.0%[38.3 µM]	-0.7	0.2	9	38	3
Cc1ccc2sc(N3CCN(C(=O)CCS(=O)(=O)c4ccc(F)cc4)CC3)nc2c1C	-1.6%	x	-1.1	x	21	x
COc1ccc(C2SCC(=O)N2c2c(C)n(C)n(-c3ccccc3)c2=O)cc1 (stereo unspecified)	-0.5%	-0.8	-0.5	13	-7	-7
Nn1c(SCC(=O)N2CCN(S(=O)(=O)c3ccccc3)CC2)nnc1-c1cccs1	25%	-1.6	2.0	8	-5	-3
CCOC(=O)c1ccc(Nc2cnc3ccccc3n2)cc1	6.4%	0.0	0.9	18	-10	8
COc1ccc(OC(C)C(=O)NC2CCCCCC2)cc1 (stereo unspecified)	1.3%	-6.5	1.2	13	-12	-6

Pulled by structure from the entries so far:
SMILES	PINK1 expr mod	D2 ag	TRPML1 agonist	Six1-Eya2 inh	TRPML1 inh	CtBP-E1A inh
Nc1nc(CN2CCN(c3ccccc3F)CC2)nc(Nc2ccccc2)n1	29%[38.3 µM]	6.2	-0.9	-16	8	-12
Cc1ccc2sc(N3CCN(C(=O)CCS(=O)(=O)c4ccc(F)cc4)CC3)nc2c1C	-1.6%	x	-1.1	x	21	x
